# Source: PubChem BioAssay (National Center for Advancing Translational Sciences (NCATS))
# CHX counter: counter-screen hit for Shiga toxin inhibitors, cycloheximide. cell reporter, cycloheximide protein synthesis inhibition counterscreen. max response, %. hit rate 12% among 300,000. AID 2314; in the data active = max response mostly above about 13%, no sharp cut-off; inactive = mostly below about 14%; also: read at 38.3 µM for the half of the compounds with a filed dose; 0% is about no effect
# Giardia FBPA inh: blocks Giardia fructose-bisphosphate aldolase activity | A8B2U2 | AID 2451 | hit rate 0.71% among 290,000 | Potency, µM (doses to about 59.6 µM), inactives show at the highest dose activity, negative = inhibition, most hits filed as inhibitors | purified Giardia FBPA; also: potency is read from the fitted curve at half-maximal effect; % is scaled to controls: 0 for no effect and ±100 for the full control effect; nearly all actives have a fitted effect of over 55% in size
# Target sequence (A8B2U2 whole entry, looked up): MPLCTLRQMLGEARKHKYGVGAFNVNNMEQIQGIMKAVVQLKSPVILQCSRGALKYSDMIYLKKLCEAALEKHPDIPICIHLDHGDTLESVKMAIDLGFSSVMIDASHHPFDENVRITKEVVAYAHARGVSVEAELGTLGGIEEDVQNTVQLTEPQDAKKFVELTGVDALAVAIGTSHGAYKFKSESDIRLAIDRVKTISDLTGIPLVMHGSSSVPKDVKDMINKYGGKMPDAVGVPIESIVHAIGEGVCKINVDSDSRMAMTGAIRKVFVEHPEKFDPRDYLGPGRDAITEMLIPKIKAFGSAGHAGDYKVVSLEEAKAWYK
#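 Giardia FBPA (40 nM reagent) was preincubated 10 min at RT with compound (up to 57.5 uM final), then substrate plus GAPDH/TPI/NAD/arsenate coupling system with diaphorase/resazurin was added; resorufin fluorescence (525/598 nm) was read after 20 min.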
# AmpC detergent: blocks E. coli AmpC beta-lactamase in detergent assay | P00811 | AmpC hydrolysis of nitrocefin, absorbance 480 nm, 0.01% Triton | Potency, µM (series often up to 114 µM), for the others: top-dose activity change, negative = inhibition, usual class: inhibitors | hit rate 0.041% among 370,000 | AID 485294;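 also: potency is read from the fitted curve at half-maximal effect; 0% = no-compound wells and -100% = no-enzyme wells; nearly all actives have a fitted effect of over 25% in size; some results filed as inactive show a strong effect at the top dose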
#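 AmpC (5.3 nM in the dispensed reagent) in 20 mM phosphate pH 7.0 with 0.01% (detergent screen) or 0.0001% Triton X-100 was preincubated with compounds for 15 min at room temperature. Nitrocefin was then added from an 800 uM solution, and hydrolysis was followed at 480 nm.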
# AmpC inh no detg: blocks E. coli AmpC beta-lactamase in detergent-free assay; hit rate 0.52% among 330,000; AmpC nitrocefin hydrolysis, absorbance 480 nm, 0.0001% Triton; AID 485341; Potency, µM (top dose mostly 57.1 µM), for inactives: at the highest dose activity change, negative = inhibition, usual class: inhibitors; P00811;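 also: potency is read from the fitted curve at half-maximal effect; plate controls were no compound for no effect and no enzyme for full effect; nearly all actives have a fitted effect of over 20% in size; some results filed as inactive show a strong effect at the top dose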
#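 20 mM phosphate pH 7.0 + 0.01% (detergent screen) or 0.0001% Triton X-100; 5.3 nM AmpC reagent; cpd preinc 15 min RT; nitrocefin (800 uM stock) to start; A480 q20 s × 4 min; Activity was normalised to no-enzyme and no-compound control wells.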
# * = called active by the depositor; ? = inconclusive; . = no result given; & = joins results of further samples; [ ] = dose if it differs, or a comment. Unless noted, calls follow the shape of the dose curve; as a rule, active = well fitted curve in the direction sought with a large enough effect; inconclusive = small, poorly fitted or top-dose-only effect, or another doubt; inactive = no such curve, though single readings can be large; an effect the other way counts as inactive or inconclusive. Some of the compounds tested; rates above refer to the full screens.
nr | Molecule | CHX counter | Giardia FBPA inh
1 | COc1ccc(S(=O)(=O)n2c(C)nc3ccccc32)cc1C | -2.2 | -16.2%
2 | CC1CCc2c(sc3ncnc(SCC(=O)N(C)C4CCS(=O)(=O)C4)c23)C1 (stereo unspecified) | . | .
3 | O=C1NC[C@H](c2ccccc2)OC(=O)[C@@H](Cc2ccc(F)cc2)CC/C=C/C[C@@H]1CC(=O)N(CCO)Cc1ccccc1 | . | .
4 | C/C(CC(C)C)=N/Nc1ccc([N+](=O)[O-])cc1[N+](=O)[O-] | -2.1 | 1.9%
5 | C=CCNC(=S)N/N=C/c1ccc(C)s1 | 31.5* | 5.8%
6 | CC1CN(Cc2ccc(Cl)cc2Cl)CC(C)O1 (stereo unspecified) | 23.4 | ?
7 | O=[N+]([O-])c1ccc(CN2CCN(c3ncccn3)CC2)cc1 | -1.5 | ?
8 | CCOc1ccc2c(c1)-c1c(ssc1=S)C(C)(C)N2C(=O)c1ccco1 | -1.8 | -1.4%
9 | CC(C)n1cnc2c(NCc3ccccc3)nc(NCc3ccccc3)nc21 | -1.7 | -14.2%
10 | CCN1CCN(CC(=O)Nc2ccc(Cl)c(S(=O)(=O)N(C)C)c2)CC1 | -3.8 | ?
11 | Oc1cc2c(c(Cl)c1O)CCNC[C@H]2c1ccccc1 | . | -27.0%
12 | Cc1ccc(NC(=O)C2CCN(S(=O)(=O)c3ccc4c(c3)CCCC(=O)N4)CC2)c(Br)c1 | -3.8 | .
13 | CCOc1ccccc1CNS(=O)(=O)c1cc(-c2onc(C)c2C)ccc1OC | . | .
14 | CCOc1ccccc1NS(=O)(=O)c1ccc(-c2cnc(C3CC3)o2)cc1 | 6.6 | .
15 | O=C(c1cccc2ccccc12)N1CCN(Cc2ccccc2F)CC1 | -0.1 | ?

nr | AmpC detergent | AmpC inh no detg
1 | -10.0% | -13.7%
2 | . | -15.9%
3 | . | 212.5%[activator]
4 | 6.9% | -31.3%
5 | 0.6% | -20.6%
6 | 1.2% | -7.1%
7 | ? | -14.1%
8 | ? | -14.7%
9 | -1.0% | -17.0%
10 | 6.8% | -5.1%
11 | . | .
12 | 2.9%&1.8% | -5.0%
13 | 0.1% | .
14 | -2.6%&-9.4% | 77.6%[activator]
15 | -4.1% | 98.2%[activator]

# Compound profiles, as listed above. Values in the order: CHX counter	Giardia FBPA inh	AmpC detergent	AmpC inh no detg
# Shown for `O=C(c1cccc2ccccc12)N1CCN(Cc2ccccc2F)CC1` → -0.1	?	-4.1%	98.2%[activator]
# Shown for `CC1CCc2c(sc3ncnc(SCC(=O)N(C)C4CCS(=O)(=O)C4)c23)C1` (stereo unspecified) → .	.	.	-15.9%
# Shown for `C=CCNC(=S)N/N=C/c1ccc(C)s1` → 31.5*	5.8%	0.6%	-20.6%
# Shown for `O=C1NC[C@H](c2ccccc2)OC(=O)[C@@H](Cc2ccc(F)cc2)CC/C=C/C[C@@H]1CC(=O)N(CCO)Cc1ccccc1` → .	.	.	212.5%[activator]

# Structural class: the compounds so far with an aryl methoxy group (2)
nr | Molecule | CHX counter | Giardia FBPA inh
1 | COc1ccc(S(=O)(=O)n2c(C)nc3ccccc32)cc1C | -2.2 | -16.2%
13 | CCOc1ccccc1CNS(=O)(=O)c1cc(-c2onc(C)c2C)ccc1OC | . | .

nr | AmpC detergent | AmpC inh no detg
1 | -10.0% | -13.7%
13 | 0.1% | .
